# Screening data: PubChem, National Center for Advancing Translational Sciences (NCATS)
# Menin MLL FP FL: qHTS Assay for Inhibitors Targeting the Menin-MLL Interaction in MLL Related Leukemias: Competition With Fluorescein Labeled MLL-derived Peptide; AID 1766, 2009; Fluorescence polarization, fluorescein-MLL peptide displacement from menin; FP activity change, % at 61.4 µM; 290,000 tested, under 10 active; inconclusive = falling polarisation curve, or a change in total fluorescence; inactive = total fluorescence flat and polarisation flat or rising; no compound was filed as active; the % refers to the polarisation; negative = inhibition;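 further: % of control where 0% means no effect; inhibitors lower the polarisation; unlabelled MLL peptide was the positive control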
# TRPML1 ag: qHTS for Agonists of the Human Mucolipin Transient Receptor Potential 1 (TRPML1); TRPML1-expressing cells, Ca2+ dye fluorescence, FDSS; host cell line not named in the record; reference of the full effect not given here; activation, % (no concentration beside the values); 410,000 tested, 0.12% active; in the data active = activation above about 50%; inconclusive = about 30% to 50%; inactive = below about 30%; further: 0% is about no effect; the text of the record puts the active cut at 80%
#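 Cells: TRPML1-DL, 1X Tet inducer, ~16 h at 37 degrees C/5% CO2. Dye: ABD Ca8 no-wash + quencher, 45-90 min RT. Read: 10 s baseline, compound add, 110 s agonist phase; 54-4 EC80 (4uM final), 110 s antagonist phase.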
# TRPML1 inh: qHTS for Inhibitors of the Human Mucolipin Transient Receptor Potential 1 (TRPML1); TRPML1-inducible cells, Ca2+ dye fluorescence, FDSS; hits give low values; inhibition of EC80 agonist-evoked calcium signal; activity change, negative = inhibition, % (no concentration beside the values); 390,000 tested, 0.02% active; AID 624415, 2012; in the data active means activity change below about -50%; inconclusive means about -30% to -50%; inactive means above about -30%;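 further: stimulus is agonist 54-4 at its EC80 concentration; on the % scale 0 is the no-effect control and ±100 the full control effect; compound concentration not given in the record; the text of the record puts the active cut at -80%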
#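 TRPML1-DL cells, Tet-induced overnight (~16 h, 37 °C) at 1,500 cells/well, were loaded with Ca8 no-wash dye plus quencher for 45-90 min at room temperature. Compounds were pinned during FDSS kinetic reading; agonist 54-4 at EC80 (4 uM final) then added.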
# ClpP mod: qHTS Assay for Activators of ClpP | ATP-dependent Clp protease proteolytic subunit (Bacillus subtilis (strain 168)), P80244 | purified B. subtilis ClpP, FRET peptide cleavage, 20 min | Potency, µM (highest dose often 57.5 µM), inactives show at the top dose activity change, negative = active | 340,000 tested, 1.9% active | AID 651965, 2013; active = well fitted falling curve with a large enough effect; inconclusive = small, poorly fitted or top-dose-only effect; inactive = no such curve, though single readings can be large or run the other way; further: potency means the concentration at half of the fitted maximal effect; the source files actives as falling curves though it sought activators and does not explain the sign; nearly all actives have a fitted effect of over 65% in size; many hits overshoot -100%
# Target sequence (P80244 whole entry, looked up): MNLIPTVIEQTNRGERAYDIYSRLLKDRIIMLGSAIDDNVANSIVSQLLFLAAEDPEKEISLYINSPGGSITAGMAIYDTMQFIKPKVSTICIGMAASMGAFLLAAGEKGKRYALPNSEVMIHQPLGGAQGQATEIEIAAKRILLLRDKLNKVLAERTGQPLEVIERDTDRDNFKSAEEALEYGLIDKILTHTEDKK
#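 ClpP 10 microg/mL final, pH 8 Tris/KCl buffer with BSA, glycerol, Tween-20; compound pinned in; FRET-FV substrate; RT 20 min; Ex320/Em430; ΔFRET vs ADEP 5.8 microM, DMSO, no enzyme.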
# Sfp PPTase inh: qHTS Assay for Inhibitors of Bacillus subtilis Sfp phosphopantetheinyl transferase (PPTase). 4'-phosphopantetheinyl transferase ffp (Bacillus subtilis), Q9F4F7. Biochemical Sfp PPTase activity, qHTS. Potency, µM, for inactives: max response, negative = inhibition, most hits filed as inhibitors. 310,000 tested, 3.5% active. AID 1490, 2009; active means well fitted inhibition curve with a large enough effect; inconclusive means small, poorly fitted or top-dose-only effect, or another doubt; inactive means no such curve, though single readings can be large or run the other way;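 further: the enzyme is Sfp with the accession as filed and its product quenches rhodamine fluorescence; potency means the concentration at half of the fitted maximal effect; 0% = enzyme reaction without inhibitor and -100% = no enzyme wells; top concentration of the series not given in the record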
#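 Sfp 15 nM + cpd, 15 min RT; start w/ rhodamine-CoA 5 uM, BHQ-2-YbbR 12.5 uM (final); 50 mM Hepes pH 7.6, 10 mM MgCl2, 0.01% NP-40, 0.01% BSA; read 525/598 nm at 0 and 30 min.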
# TRPV1 PAM: HTS Assay for Compounds that Act as Potentiators of the Vanilloid Receptor 1. Transient receptor potential cation channel subfamily V member 1 (Homo sapiens), Q8NER1. TRPV1-expressing cells, Fluo-8 calcium influx, capsaicin EC20 potentiation; host cell line not named in the record; control for the full effect not named in the record. potentiation, % at 8.33 µM. 320,000 tested, 0.02% active; active means potentiation above 80%; inconclusive means 30% to 80%; inactive means below 30%; further: 0% is about no effect
# Target sequence (Q8NER1 whole entry, looked up): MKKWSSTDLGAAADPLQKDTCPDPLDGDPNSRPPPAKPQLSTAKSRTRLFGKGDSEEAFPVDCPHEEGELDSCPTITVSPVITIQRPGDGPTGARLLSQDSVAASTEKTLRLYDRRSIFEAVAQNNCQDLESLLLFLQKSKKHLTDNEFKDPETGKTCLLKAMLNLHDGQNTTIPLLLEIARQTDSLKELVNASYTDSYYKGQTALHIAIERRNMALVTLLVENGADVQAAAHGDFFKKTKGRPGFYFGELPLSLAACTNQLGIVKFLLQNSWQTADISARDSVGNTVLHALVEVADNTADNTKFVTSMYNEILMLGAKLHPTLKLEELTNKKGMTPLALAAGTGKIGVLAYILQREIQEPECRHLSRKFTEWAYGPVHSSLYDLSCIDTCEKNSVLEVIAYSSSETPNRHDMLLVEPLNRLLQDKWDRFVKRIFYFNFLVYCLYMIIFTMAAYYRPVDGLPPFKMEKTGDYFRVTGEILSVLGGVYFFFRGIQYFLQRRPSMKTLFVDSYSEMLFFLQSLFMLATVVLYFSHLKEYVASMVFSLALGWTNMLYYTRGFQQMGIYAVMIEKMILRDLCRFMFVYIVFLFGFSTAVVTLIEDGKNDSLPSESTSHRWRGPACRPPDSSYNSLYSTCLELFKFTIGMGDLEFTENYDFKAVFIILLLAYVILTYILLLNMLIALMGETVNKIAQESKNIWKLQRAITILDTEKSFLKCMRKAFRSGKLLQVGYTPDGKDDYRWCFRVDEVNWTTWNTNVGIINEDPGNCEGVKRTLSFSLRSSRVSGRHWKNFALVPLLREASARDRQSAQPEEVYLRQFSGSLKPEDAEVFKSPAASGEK
#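 TRPV1-expressing cells were cultured overnight at 35.5C and loaded with Fluo-8 calcium dye for 40 to 90 min at room temperature. After a 10 s baseline, compound was added and calcium influx was read kinetically for 3 min (ex 480/em 520 nm).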
# PINK1 modulator: A Quantitative High throughput Screen to Identify Chemical Modulators of PINK1 Expression. 410,000 tested, 0.2% active. AID 624263, 2012. PINK1 immunofluorescence, high-content cytometry, 24 h. Potency, µM (top dose mostly 76.6 µM), inactives show at the top dose activation (PINK1 increase), hits mostly activators; active = well fitted activation curve with a large enough effect; inconclusive = small, poorly fitted or top-dose-only effect; inactive = flat fitted curve, though single readings scatter; cell line not stated here;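 further: potency means the concentration at half of the fitted maximal effect; % of control where 0% means no effect; nearly all actives have a fitted effect of over 65% in size; a mitochondrial uncoupler was the plate control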
#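 PINK1 protein level read as immunofluorescence by microplate cytometer in a fixed, stained stable cell line after 24 h exposure to five compound concentrations, with CCCP as control.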
# * marks the source's active call; other numbers are inactive results; ? = inconclusive; . = no result given; & = joins results of further samples; [ ] = remark or other dose.
SMILES,Menin MLL FP FL,TRPML1 ag,TRPML1 inh,ClpP mod,Sfp PPTase inh,TRPV1 PAM,PINK1 modulator
COc1ccc(N2CCN(C(=O)C3Cc4ccccc4N3C(C)=O)CC2)cc1 (configuration not stated),.,1.2,23.4,-7.7%,.,.,-0.7%
O=C(O)C1C2C=CC3(CN(C/C=C/c4ccccc4)C(=O)C13)O2 (configuration not stated),4.1,-0.7,3.6,-3.5%,2.7%,2.7,-0.1%
CC(C)c1ccc(-c2noc(SCC(=O)N3CCCCC3C)n2)cc1 (configuration not stated),.,2.4,-20.4,-1.1%,.,.,6.6%
N#Cc1nc(-c2ccccc2F)oc1NCc1cccc2c1OCO2,4.0,0.3,-15.5,?,?,-2.2,-6.9%[38.3 µM]
O=C(O)CCC(=O)N(Cc1ccccc1)Cc1ccccc1,2.6,-0.1,-28.7,1.3%,17.6%,8.6,6.3%
O=C(CSc1n[nH]c(=O)[nH]c1=O)N1CCCCCC1,-0.6,.,.,1.8%,12.0%,-5.0,1.3%
NC(=S)N/N=C/c1cccc(Br)c1,-3.2,-0.4,3.9,-1.1%,-7.1%,-0.8,-1.2%
CC(C)N1CC2=C(OC(N)=C(C#N)C2c2cccnc2)/C(=C/c2cccnc2)C1 (configuration not stated),-10.4,3.1,9.5,-3.2%,-1.2%,13.5,-1.1%
CC(=O)N1CCN(c2ncnc3sc(-c4ccccc4)cc23)CC1,0.3,0.5,2.8,3.7%,11.9%,-13.4,3.5%
CC(C)Cc1ccc(/C=C/C(=O)N2CCOCC2)cc1,0.6,-1.2,-7.2,-1.0%,13.8%,-12.9,3.7%
CC(C)c1cc(-c2cc(-c3ccc(Cl)cc3)on2)nc(NC2CCCC2)n1,4.8,0.2,-8.5,?,-7.9%,-9.3,2.3%
Cc1ccc(C(=O)Nc2nc3nc(-c4ccccc4)cc(=O)n3[nH]2)cc1,0.9,0.0&-0.9,-9.6&-4.8,3.0%&-0.2%,13.2%,12.8,-0.2%&2.2%
Nc1cc(N)nc(SCc2cc([N+](=O)[O-])cc3c2OCOC3)n1,-0.2,.,.,2.1%,10.6%,14.6,0.5%
Nc1ncnc2c(C3OC(CO)C(O)C3O)scc12 (configuration not stated),.,0.5,8.2,?,.,.,-1.5%
O=S(=O)(c1ccccc1)N1CCC(N2CCCCCC2)CC1,4.5,-0.9,3.4,-0.9%,-8.6%,1.3,-3.1%
CCn1c(CN2CCC(C)CC2)nc2cc(NC(=O)COc3ccc([N+](=O)[O-])cc3)ccc21,.,-0.1,-7.2,-0.9%,.,.,1.0%
COc1ccc(S(=O)(=O)NCCc2cn3nc(C)c(C)nc3n2)cc1,0.0,-0.8,25.0,3.9%,17.4%,2.6,0.6%
O=C(CSc1nc2cc(Cl)ccc2s1)NCC1CCCO1 (configuration not stated),.,0.1,-4.4,-3.5%,.,.,-0.9%
CC1(C)CC(=O)c2c(O)cc(OCC(=O)Nc3ccc(CCO)cc3)cc2O1,-10.5,.,.,2.4%,-0.5%,-19.1,-0.2%
CC(=NNC(=O)c1ccc(NS(=O)(=O)c2cccs2)cc1)c1ccc(OCC(N)=O)cc1,.,0.6,35.9,-3.0%,.,.,1.0%
COc1cc2c(cc1OC)CN(C1CC(=O)N(c3c(C)cccc3C)C1=O)CC2 (configuration not stated),3.1,0.2,-11.3,.,5.7%,-2.1,0.6%
Cc1c(NC(=O)COc2ncnc3c(Cl)cc(Cl)cc23)c(=O)n(-c2ccccc2)n1C,2.6,0.3,16.2,-2.8%,6.2%,14.6,-0.5%
Cc1ccc(C)c(N2CCN(S(=O)(=O)c3cn(C)c(C)n3)CC2)c1,.,0.6,-0.6,-7.0%,.,.,-5.2%
CSc1ccc(CCNC(=O)CCc2c(C)nc3cc(-c4ccccc4)nn3c2C)cc1,.,-0.3,13.9,4.1%,.,.,0.9%
O=C(NNC(=S)Nc1ccc(Br)cc1)c1ccccc1,0.8,1.1,-9.0,12.8%,9.6%,-6.6,0.5%
Cc1c(C)n(CC(O)CN2CCN(C)CC2)c2ccccc12 (configuration not stated),0.0,0.5,13.1,3.8%,2.0%,6.3,1.8%
CC1=C(C(=O)OCc2ccccc2)C(c2ccccn2)c2c(n(C)c(=O)n(C)c2=O)N1 (configuration not stated),4.0,-0.2&-0.1,9.0&-16.5,-13.4%&-8.8%,5.6%,?,-0.9%&2.4%
CCOC(=O)/C(C#N)=C/Nc1ccccc1OC(F)(F)F,-0.3,0.9,19.9,-1.1%,-0.9%,-12.3,2.5%
CCN(CC)C(=O)C1=C(C)N(CCCN2CCCC2=O)C(=O)C(CC(=O)NCCCN(C)C)C1 (configuration not stated),.,-0.5,-14.5,0.8%,.,.,0.9%
COc1ccc(CSc2nc3ccccc3c(=O)n2CCCN2CCOCC2)cc1F,-0.2,0.6,46.1,0.1%,-19.2%,6.0,-0.2%
Cn1cnnc1SCC(=O)Nc1sccc1C#N,2.8,-0.3,-2.3,-3.5%,8.4%,-5.9,.
CCc1nnc(NC(=O)CCC(=O)N2CCN(CCOc3ccc(C)cc3)CC2)s1,-2.4,3.1,-1.9,-0.5%,15.0%,-2.4,-2.1%
CCOP(=O)(OCC)/C(C#N)=C/c1ccc([N+](=O)[O-])cc1,3.0,-0.2,8.7,.,-19.4%,-6.9,0.4%
CC(=O)c1ccc(N2CCC(c3cc(-c4ccc(Cl)cc4Cl)n[nH]3)CC2)c([N+](=O)[O-])c1,-0.1,-0.8,4.4,0.5%,-4.4%,.,6.8%[38.3 µM]
CC(=O)c1c(C)[nH]c(C(=O)Nc2nc(-c3ccc(-c4ccccc4)cc3)cs2)c1C,5.4,0.0,-10.5,?,-16.5%,8.0,?
COC(=O)C1=C2SCC(=O)N2C(N)=C(C#N)C1,?,0.5,0.4,-1.0%,?,.,-0.2%
COc1cccc(Nc2nc(C(N)CCc3ccccc3)cs2)n1 (configuration not stated),.,0.7,.,-10.0%,.,.,-1.2%
O=C(CCCCn1c(=O)[nH]c2ccccc2c1=O)N1CCN(c2ncccn2)CC1,4.1,-0.2,16.7,-16.1%,30.2%[activator],-4.4,1.2%
CCOc1ccc(NC(=O)C2CCN(S(=O)(=O)c3ccc4c(c3)N(C(C)=O)CCO4)CC2)cc1,2.2,1.0,10.3,2.6%,-1.0%,-10.9,1.6%
O=C1CN(C(=O)CNCc2ccccc2)c2ccccc2N1,2.4,-0.1,-8.8,.,-4.1%,0.1,1.9%
COc1ccccc1OCCNC(=O)C1CC(=O)N(c2cccc(SC)c2)C1 (configuration not stated),.,0.1,-7.3,.,.,-8.8,1.2%
COC(=O)CN(c1cc(Cl)ccc1OC)S(=O)(=O)c1ccc(OC)c(OC)c1,4.3,0.6,-1.0,-0.6%,-19.1%,14.1,1.1%
COC(=O)c1cc(C(=O)c2cccc(Cl)c2Cl)cn1C,4.8,1.6,-6.0,-0.6%,10.6%,7.0,-1.3%
O=C(CC(Nc1ccc(Cl)cc1Cl)C(=O)O)c1ccccc1 (configuration not stated),0.7,0.9,-13.1,-1.2%,14.1µM*,0.7,0.2%
CCn1nc(C)c(/C=N\NC(=O)c2cccc(OC)c2)c1C,2.0,-0.3,9.0,-0.2%,8.0%,3.9,1.5%
Cc1sc(NC(=O)Cc2ccc3c(c2)OCO3)nc1-c1ccc2c(c1)CCN2C(=O)c1cccc(F)c1,0.2,0.8,-9.6,-5.0%,6.9%,-1.2,0.9%
CCOC(=O)C1CCC(CN(Cc2ccc(OC)cc2)S(=O)(=O)c2ccc(F)c(C(=O)Nc3c(C)cccc3C)c2)CC1 (configuration not stated),.,0.8,-8.8,0.7%,.,.,2.4%
Cc1nc2sc(-c3ccccc3)cc2c(=O)n1-n1cccc1,-0.6,2.1,2.5,-5.9%,-10.0%,-16.8,-0.3%
CCOC(=O)c1ccccc1NC(=O)CN(c1ccccc1)S(=O)(=O)N(C)C,0.9,2.4,16.7,-1.1%,-7.1%,-5.0,.
Cc1c(CNCCCc2ccccc2)c(C(=O)O)c(C)n1Cc1cccc(Cl)c1,.,-0.6,6.1,2.0%,.,.,0.0%

# Continuation.
SMILES,Menin MLL FP FL,TRPML1 ag,TRPML1 inh,ClpP mod,Sfp PPTase inh,TRPV1 PAM,PINK1 modulator
C=CCn1c(=O)c2ccccc2n2c(SCc3c(C(=O)OCC)oc4ccccc34)nnc12,2.7,0.7,16.1,-3.6%,-2.7%,7.7,-0.9%
CC(C)(C)c1ccc(NC(=O)CC2(C(F)(F)F)OCCO2)cc1,1.0,-0.4,-1.5,1.9%,5.9%,-18.4,?
CCc1ccc(S(=O)(=O)NCCc2cn3ccc(C)cc3n2)s1,-7.7,-0.3,-14.4,-19.6%,18.3%,0.1,-1.2%
O=C(NCc1ccco1)c1ccc(COc2ccc(Cl)cc2)cc1,2.5,1.7,-0.9,.,-25.5%,20.6,4.1%
O=C(C1=C(O)C(=O)N(CCN2CCOCC2)C1c1ccc([N+](=O)[O-])cc1)c1cc2ccccc2o1 (configuration not stated),.,0.8,-5.5,-1.9%,-28.7%,-12.9,-1.8%
COCCn1c(-c2ccco2)csc1=Nc1cccnc1,2.3,0.9,-29.6,-4.2%,20µM*,-3.0,-1.7%[38.3 µM]
Cc1ccc([N+](=O)[O-])cc1NC(=O)CCSc1ccc(Cl)cc1,1.2,1.2,17.2,-2.1%,-12.8%,-5.4,0.6%
O=C(CC1SC(=O)N(c2ccccc2)C1=O)Nc1cccc2ccccc12 (configuration not stated),3.7,1.4,-9.0,.,20µM*,-1.9,5.2%
O=C(NCCCc1ccccc1)C1CCN(c2nnc(-n3cccc3)s2)CC1,3.2,-0.3,-3.5,-2.0%,-11.9%,-10.2,6.4%
Cc1cc(C)cc(NC(=O)c2ccc(CNc3c(N4CCOCC4)c(=O)c3=O)cc2)c1,2.2,-0.1,13.8,-3.3%,10.9%,-11.5,0.7%
Cc1ccc(C)c(CN2CCSCC2)c1,-0.7,-1.3,3.8,1.2%,-16.2%,0.3,5.9%
